# Assay outcomes from PubChem BioAssay.
# Ecoli growth: inhibitors of Escherichia coli growth | OD600, 23 h; stronger effect = lower value | OD600 absorbance (test concentration not listed) | 330,000 compounds, 0.21% hits;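 active means OD600 absorbance below the run mean of sample wells minus 3.6 SD, in any replicate, cut at about 0.56 in these data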;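 further: stock transfer was 300 nL into about 60 µL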
# HNF4A DNA FP: change in binding of human HNF4 alpha to DNA. P41235. HNF4a-FITC DNA binding, fluorescence polarization, 1 h. activity change, % at 10 µM. 360,000 compounds, 0.3% hits. AID 1224865; in the data active means activity change above about 30%, passing the limit was not always enough;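 further: controls were the assay level and a saturating level of protein; the project sought stronger binding though the title names inhibitors; some compounds called inactive have numbers as strong as hits; positive values seem to mean higher polarization but the record does not say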
# RanGTP-Imp inh: inhibitors of RanGTP-importin-beta interaction, primary screen, biochemical, FRET, CFP-Ran, YFP-importin-beta, homogeneous. cell-free CFP-Ran/YFP-importin-beta FRET ratio. inhibition, % (concentration not given with the values). 300,000 compounds, 1.1% hits;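 active means most replicates above 15%; inconclusive means exactly half above 15%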;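 further: 0% = DMSO wells and 100% = Ran loaded with GDP instead of GTP; wells of about 40 µL received 100 nL stock; the first replicate is given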
# FGF22 binding: shifts melting point of recombinant human FGF22. Q9HCT0. recombinant FGF22 thermal shift, SYPRO orange fluorescence; percent of sucrose octasulfate shift, DMSO zero. calls only at 9.99 µM. 340,000 compounds, 1.5% hits. AID 651658;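 active means melting point raised past a set limit in the mean and every replicate; inconclusive means no clear call; three in four hits are not shown here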
# Target sequence (Q9HCT0 whole entry, looked up): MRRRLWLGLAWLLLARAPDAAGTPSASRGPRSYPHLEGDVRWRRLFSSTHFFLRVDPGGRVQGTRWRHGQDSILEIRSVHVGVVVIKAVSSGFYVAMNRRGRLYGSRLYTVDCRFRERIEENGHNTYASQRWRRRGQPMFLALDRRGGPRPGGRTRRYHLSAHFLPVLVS
# AF4-AF9 inh: blocks AF4 peptide binding to human AF9. inhibition, % at 10 µM. AlphaScreen, biotin-AF4 peptide binding to FLAG-AF9. P42568. 350,000 compounds, 0.47% hits;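 active means every replicate reaching a set inhibition limit, whatever the replicate mean, cut at about 25% in these data; inconclusive means mean inhibition reaches that limit but some replicates miss it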;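 further: 0% = plate neutral control median and 100% = total signal loss; the record names both 10 and 1 µM as test concentration; the first replicate is given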
# Target sequence (P42568 whole entry, looked up): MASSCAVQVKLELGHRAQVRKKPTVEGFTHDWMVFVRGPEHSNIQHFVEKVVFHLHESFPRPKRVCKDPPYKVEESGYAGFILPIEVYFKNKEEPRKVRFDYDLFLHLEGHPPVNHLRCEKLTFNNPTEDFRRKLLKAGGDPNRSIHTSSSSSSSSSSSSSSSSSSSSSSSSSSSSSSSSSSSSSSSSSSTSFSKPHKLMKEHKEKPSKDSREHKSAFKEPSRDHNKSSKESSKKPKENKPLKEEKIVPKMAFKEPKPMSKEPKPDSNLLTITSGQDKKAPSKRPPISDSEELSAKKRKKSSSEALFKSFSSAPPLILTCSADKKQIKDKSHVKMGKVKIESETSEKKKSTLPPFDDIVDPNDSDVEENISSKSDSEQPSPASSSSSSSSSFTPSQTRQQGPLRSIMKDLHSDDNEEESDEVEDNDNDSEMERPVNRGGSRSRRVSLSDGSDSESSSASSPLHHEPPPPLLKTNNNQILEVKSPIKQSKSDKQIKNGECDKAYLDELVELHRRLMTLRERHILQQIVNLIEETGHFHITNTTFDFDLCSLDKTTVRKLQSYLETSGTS
# UCH37 DUB inh: blocks the human deubiquitinase UCH37; 330,000 compounds, 0.33% hits; Q9Y5K5; inhibition, % (concentration not given with the values); purified proteasome/UCH37, Ub-AMC cleavage fluorescence;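 active means mean of two replicates above 20%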;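 further: 0% = compound-free wells with enzyme and 100% = wells lacking proteasome; stock transfer was 100 nL into about 20 µL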
# Target sequence (Q9Y5K5 whole entry, looked up): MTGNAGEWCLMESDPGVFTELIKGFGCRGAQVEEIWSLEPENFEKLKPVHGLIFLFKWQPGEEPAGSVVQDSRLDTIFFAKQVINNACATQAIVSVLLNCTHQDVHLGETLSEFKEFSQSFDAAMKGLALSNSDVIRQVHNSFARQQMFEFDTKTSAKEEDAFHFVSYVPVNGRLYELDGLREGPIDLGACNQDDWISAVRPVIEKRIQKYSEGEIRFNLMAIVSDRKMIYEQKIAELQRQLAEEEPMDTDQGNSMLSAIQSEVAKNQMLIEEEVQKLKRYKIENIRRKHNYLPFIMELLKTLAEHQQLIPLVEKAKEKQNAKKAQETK
#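 Signal – fluorescence, ex 355 nm, em 460 nm · System – Proteasome-bound UCH37 · Input – 0.15 nM proteasome as dispensed · Timing – 30 min preincubation with enzyme, 25 min cleavage at room temperature · Read-out basis – percent inhibition of cleavage signal versus uninhibited and no-proteasome wells · Medium – Tris-HCl pH 7.4 with ATP-MgCl2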
# Vif A3G: HIV-1 Vif–A3G interaction blockers – biochemical, TR-FRET, GST-Vif 1-94, biotin-A3G peptide, dose response retest, primary screen (AID 1117319); TR-FRET GST-Vif / biotin-A3G peptide binding; higher % means a stronger effect; test concentration not given here; strong numbers were not always called active; one-dose inhibition, %; IC50 in µM for titrated hits; 260,000 compounds, 0.57% hits;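 active means above the screen mean plus three standard deviations and confirmed in dose response; inconclusive means results disagree or hit not tested in dose response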;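 further: Vif residues 1-94 fused to GST binding biotinylated APOBEC3G peptide 110-148; 0% = full assay without inhibitor and 100% = GST in place of GST-Vif; retest series ran down from 100 µM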
# Starred values were filed as active, the others as inactive; i = inactive; ? = inconclusive; . = no result given.
SMILES,Ecoli growth,HNF4A DNA FP,RanGTP-Imp inh,FGF22 binding,AF4-AF9 inh,UCH37 DUB inh,Vif A3G
COc1cc(OC)c(OC)cc1CNC(=O)c1cc(S(=O)(=O)N(C)c2ccccc2OC)ccc1C,0.64,-3.2,.,i,8.0,1.3,.
CC(C)[C@H](NS(=O)(=O)c1ccccc1)C(=O)OCn1nnc2ccccc2c1=O,.,-1.3,-1.0,.,.,4.1,-5%
O=C(c1ccc2c(c1)OCO2)C1CCCN(C(=O)Nc2ccc(F)cc2F)C1 (centres undefined),0.7,5.3,-6.5,i,3.7,-0.9,.
Nc1ccc(C(=O)NCCCCCCNC(=O)c2ccc(N)cc2)cc1,0.65,2.4,-0.6,i,-0.9,0.1,-3%
CC(=O)Oc1ccc(C(=O)Nc2cc(C)ccc2NC(=O)COc2ccccc2)cc1,0.65,0.3,7.1,i,4.4,-0.6,-5%
CCc1ccc(NS(=O)(=O)c2cc3c(cc2C)n(C)c(=O)c(=O)n3C)cc1,0.74,2.3,2.2,i,-0.5,5.6,-3%
COc1ccc(-c2c(-c3ccc4c(c3)OCO4)noc2C)cn1,.,1.7,0.7,i,-1.0,2.3,.
COc1cnn(-c2ccc(C)cc2)c(=O)c1SCc1ccccc1,0.66,-1.3,-1.1,.,.,-1.0,14%
CC1CCCN(S(=O)(=O)c2ccc3c(c2)n(C)c(=O)c(=O)n3C)C1 (centres undefined),0.69,-0.2,-1.0,i,-11,-16,.
COC(=O)[C@@H]1C[C@@]2(O)[C@H](O)[C@H](O)[C@H](O)C[C@H]2N1Cc1ccc(C)s1,.,0.5,5.8,i,-1.3,3.2,-9%
Cc1ccc(SCC(=O)OCC(=O)N(C)CC(=O)Nc2ccc(F)cc2)cc1,0.6,-2.8,2.9,i,0.5,0.1,-2%
N#C/C(=C\C1=C(N2CCOCC2)C(=C\c2ccc(Cl)cc2)/CC1)C(=O)Nc1ccccc1F,0.75,28,-0.3,i,-0.2,14,.
O=C(CC1(O)C(=O)c2ccccc2C1=O)c1ccccc1,0.67,-2.6,-1.5,.,-0.3,1.2,.
COc1ccccc1OCC(=O)NCC1CCCN(Cc2cnn(C(C)C)c2)C1 (centres undefined),0.72,6.2,3.7,i,-0.8,-0.9,68%
COc1ccc(S(=O)(=O)N2CCOCC2)cc1C(=O)N(C)Cc1ccco1,0.7,-5.2,.,i,-2.8,1.7,.
O=C(O)CCNS(=O)(=O)c1cccc(Br)c1,0.65,-4.1,-3.5,i,3.8,1.8,.
CC(C)C1CCN(C(=O)C2CCC(=O)N(CCc3ccc(Cl)cc3)C2)CC1 (centres undefined),0.71,-4.1,-0.1,i,0.9,1.3,.
CCC(C)[C@H](NC(=O)N1CCCC1)C(=O)O (some centres undefined),0.73,-1.3,-4.5,i,-39,4.0,69%
CC(c1nccs1)N(C)C(=O)CCc1nnc(CCc2ccccc2)o1 (centres undefined),0.71,0.5,-2.6,i,6.6,4.4,8%
COc1ccc(/C=N/Nc2nncc3ccccc23)cc1,.,1.0,-3.4,i,4.2,.,.
CC(C)(C)NCc1cc(Br)ccc1OCc1cccs1,.,0.7,4.5,.,.,.,5%
NC(=O)NN=C1C2CCCC1C(c1ccccc1)NC2c1ccccc1 (centres undefined),0.7,-0.9,-0.1,i,12,6.1,?
COc1cc(C(=O)Nc2cc(S(=O)(=O)N3CCOCC3)ccc2N2CCOCC2)ccc1OC(F)F,0.68,4.2,.,i,-16,2.2,.
Cc1nc2nc[nH]n2c(=O)c1NS(C)(=O)=O,0.7,1.4,-1.4,.,.,-0.4,4%
O=C(c1cncc(Br)c1)N1CCN(S(=O)(=O)c2ccccc2)CC1,0.68,-1.0,-2.1,i,-0.8,3.2,-6%
CCOc1cc(-c2noc(CCC(=O)NCCc3ccccc3)n2)ccc1OC,0.64,1.4,-2.0,i,-1.2,3.7,-3%
O=C(Nc1ccc(N2CCOCC2)c2nonc12)C1CCCC1,0.72,3.6,3.4,.,.,1.3,16%
O=C1NC(=O)C(c2cccs2)(c2cccs2)N1,0.69,-5.7,3.0,i,-0.2,2.1,.
COc1ccc(NC(=O)CCc2ccccc2)cc1S(=O)(=O)N1CCCCC1,0.72,1.5,.,i,0.6,-2.1,2%
COc1cc(OC)cc(C(=O)NNC(=O)CN2C(=O)NC3(CCCC3)C2=O)c1,0.68,1.7,.,i,-3.2,1.9,.
COc1ccc(/C=N/Nc2nc3ccccc3c(=O)[nH]2)cc1,.,-0.9,0.8,.,.,.,0%
N#Cc1ccc(C(=O)NN2C(=O)NC3(CCCCC3)C2=O)cc1,0.57,-0.1,.,i,3.7,0.2,4%
CCN(CC)C(=O)CSc1ccccc1N,0.67,1.3,-3.4,.,.,0.7,-6%
CC(C)C[C@H]1CN([C@@H](Cc2ccccc2)CN2CCC[C@H]2CN2C(=O)C(=O)NC[C@@H]2Cc2ccccc2)C(=O)C(=O)N1CCc1ccccc1,.,3.0,.,i,2.5,.,.
CCOc1ccccc1OCC(=O)N/N=C(\C)Cc1ccc(OC)cc1,.,2.5,2.5,i,-1.1,.,-1%
CCC(=O)N1c2ccccc2[C@@H](N(C(C)=O)c2ccccc2)C[C@H]1C,0.71,0.9,0.5,.,.,0.5,0%
Cc1csc(NC(=O)c2ccc(S(=O)(=O)N3CCCC3)cc2)n1,0.71,0.1,6.5,i,5.7,4.8,-14%
O=C1OCCN1C(=O)[C@H]1[C@H](c2ccc(Cl)cc2)C(c2cccc(Cl)c2)=NN1c1ccc(Br)cc1,0.74,2.0,.,i,-31,i,0%
C=CCOc1ccc(C=Nc2cccc(Cl)c2)c(O)c1,0.66,2.7,4.6,i,0.4,1.4,2%
COc1ccc(CCN2CC(C(=O)NCCc3ccccn3)CCC2=O)cc1 (centres undefined),0.69,0.8,-2.6,i,-8.7,0.0,0%
O=C(CSc1ncccn1)N1CCc2ccccc2C1,0.71,-0.9,3.9,i,-1.7,2.3,1%
CC(C)OCCCNc1nc2c([nH]1)c(=O)n(C)c(=O)n2C,0.73,-3.3,-1.5,.,.,0.1,8%
COc1ccccc1N1C(=O)CC(N2CCN(c3ccc(Cl)cc3)CC2)C1=O (centres undefined),0.63,-6.9,3.5,i,-0.9,0.0,.
CC(NC(=O)CN1C(=O)NC(Cc2ccccc2)(Cc2ccccc2)C1=O)C12CC3CC(CC(C3)C1)C2 (centres undefined),0.71,0.5,2.8,.,.,5.1,6%
CCOc1ccccc1OCCn1ncc2ccc(OC)c(OC)c2c1=O,0.71,-1.5,0.2,.,.,0.6,-1%
COc1cc(CN2CCN(c3cccc(C)c3C)CC2)cc(Br)c1O,0.64,-0.3,2.0,.,.,6.2,8%
NC(=O)CC(NC(=O)Cc1cccc2ccccc12)c1ccc(NCCc2cccc(F)c2)c([N+](=O)[O-])c1 (centres undefined),0.71,24,0.9,i,0.1,2.5,19%
CCn1c(C)cc(C(=O)CN2C(=O)c3ccccc3S2(=O)=O)c1C,0.64,4.6,.,i,3.5,2.8,6%
Cc1cncc(N2CCN(c3ccccn3)CC2)n1,.,-0.6,.,i,4.6,.,.
NS(=O)(=O)c1ccc(NC(=O)CSc2nnc(COc3ccccc3Cl)n2C2CC2)cc1,0.72,-2.8,.,.,.,2.4,-3%
Cc1cc(C)c(OCC(=O)Nc2ccccc2N2CCOCC2)c(C)c1,0.64,-0.9,-0.9,.,.,2.9,3%
CC(=O)NS(=O)(=O)c1ccc(NC(=O)CC23CC4CC(CC(Br)(C4)C2)C3)cc1,0.69,-2.7,0.2,i,-0.3,5.6,.
COC(=O)c1ccccc1NC(=O)CSc1nncn1C,0.63,0.3,-7.8,i,-0.5,1.7,2%
Cn1c(CC(=O)Nc2ccccc2)n[nH]c1=S,0.71,-3.3,-4.0,i,-2.2,1.6,3%
COc1ccc(C2(O)CCN(C(=O)c3c(F)cccc3F)CC2)cc1,0.71,-0.4,3.9,.,.,0.2,2%
CCC(C)(C)n1nnnc1C(C(C)C)N1CCN(C)CC1 (centres undefined),0.69,-0.5,5.9,.,-31,-3.2,24%
CCOC(=O)c1cc(-c2ccccc2)nn1CCC#N,0.72,1.1,-1.9,i,2.4,4.3,4%
CCOC(=O)c1c(C)[nH]c(C(=O)COC(=O)COc2ccccc2C)c1C,0.69,-3.6,-0.8,i,2.2,2.4,-1%
Cc1ccc(NC(=O)Nc2cc(S(=O)(=O)N(C)C)ccc2C)cc1,0.62,-1.5,-0.7,i,-1.2,-0.7,21%
CC(C)Cn1c(N)c(C(=O)CSc2nnc(C3CC3)n2C2CC2)c(=O)n(C)c1=O,0.71,-2.3,.,i,1.7,0.2,2%

# Gathered by group, the entries above with two or more sulfur atoms.
SMILES,Ecoli growth,HNF4A DNA FP,RanGTP-Imp inh,FGF22 binding,AF4-AF9 inh,UCH37 DUB inh,Vif A3G
O=C1NC(=O)C(c2cccs2)(c2cccs2)N1,0.69,-5.7,3.0,i,-0.2,2.1,.
Cc1csc(NC(=O)c2ccc(S(=O)(=O)N3CCCC3)cc2)n1,0.71,0.1,6.5,i,5.7,4.8,-14%
NS(=O)(=O)c1ccc(NC(=O)CSc2nnc(COc3ccccc3Cl)n2C2CC2)cc1,0.72,-2.8,.,.,.,2.4,-3%

# The results go on:
SMILES,Ecoli growth,HNF4A DNA FP,RanGTP-Imp inh,FGF22 binding,AF4-AF9 inh,UCH37 DUB inh,Vif A3G
CCOC(=O)N1CCN(C(=S)Nc2ccccc2C(C)C)CC1,0.71,-1.1,3.8,i,-2.0,3.0,.
CCc1nnc(SCc2cccc(F)c2)nc1CC,0.68,-7.2,?,.,.,-1.3,.
COc1ccc(NC(=O)C[C@H]2C(=O)N(C3CCCCC3)C[C@@H]2C)cc1,.,1.6,.,i,1.1,.,-5%
CSc1nc(C)c(CCOCc2ccccc2)c(=O)[nH]1,0.72,-0.9,-2.0,.,.,2.0,-8%
COc1ccc(S(=O)(=O)N(CC(=O)NCc2ccncc2)c2cc(C)cc(C)c2)cc1OC,0.68,-0.7,2.0,i,0.3,-1.8,4%
COc1ccc(-c2ccc(-c3cc(=O)oc4c(C(C)C)ccc(C)c34)cc2)cc1,0.78,2.3,.,i,2.3,-8.7,-3%
CCNc1c(NS(=O)(=O)c2ccc(OC)c(Cl)c2)c(=O)oc2ccccc12,0.72,-2.0,1.1,i,-3.2,-21,.
COc1ccc(OC)c(NC(=S)NCc2ccc(S(N)(=O)=O)cc2)c1,0.69,4.6,-1.2,.,0.6,-1.2,?
Cc1ccc(C(=O)C2=C(O)C(=O)N(Cc3cccnc3)C2c2ccc(N(C)C)cc2)o1 (centres undefined),0.69,3.6,3.3,i,-13,9.7,3%
CCCn1c(CNC(=O)Cc2ccccc2)nc2ccccc21,0.71,-1.9,3.0,.,.,2.1,5%
CCC(C)(C)n1nnnc1C(c1ccc(C)cc1)N1CCN(Cc2cccnc2)CC1 (centres undefined),0.75,-0.3,-8.8,.,.,-0.3,-1%
Cc1cccc(NC(=O)c2ccc(NCC3CCCO3)c([N+](=O)[O-])c2)n1 (centres undefined),.,1.0,-1.0,i,-3.6,.,-4%
O=C(CSc1nccn(-c2ccc(Br)cc2)c1=O)NCc1ccccc1,.,2.1,-2.1,i,-5.4,.,.
Cc1c(C(=O)NCc2cccc(C(F)(F)F)c2)sc(=O)n1Cc1ccc(C(=O)N(C)C)cc1,.,-0.2,.,i,-1.9,.,.
CC1CCCCN1S(=O)(=O)CCNC(=O)c1ccccc1 (centres undefined),0.62,-1.8,0.5,i,-1.4,3.0,-14%
CCc1nc(SCc2ccc(F)cc2)n[nH]1,0.69,-6.3,?,i,-1.6,1.7,3%

# The list is partial, so the mix of outcomes need not match the whole.
